Screens as filed in PubChem BioAssay.
PABP polyA inh – PABP-poly(A) binding inhibition; PABP-poly(A) RNA binding, fluorescence polarization; 1% of 290,000 active; inhibition, % at 35 µM;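 active means 50% or more with normal probe brightness, or confirmed in later tests; inconclusive means above 50% with abnormal brightness, or retests that disagree; inactive means below 50% or failed in later tests; about a fifth of its hits are not listed in these tables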;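 further: calls also rest on retests at 20 µM and on dose response follow-up; controls were probe without protein and protein plus probe with vehicle; some compounds called inactive have numbers as strong as hits; many hits fall short of the cut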
Target sequence (P11940 whole entry, looked up): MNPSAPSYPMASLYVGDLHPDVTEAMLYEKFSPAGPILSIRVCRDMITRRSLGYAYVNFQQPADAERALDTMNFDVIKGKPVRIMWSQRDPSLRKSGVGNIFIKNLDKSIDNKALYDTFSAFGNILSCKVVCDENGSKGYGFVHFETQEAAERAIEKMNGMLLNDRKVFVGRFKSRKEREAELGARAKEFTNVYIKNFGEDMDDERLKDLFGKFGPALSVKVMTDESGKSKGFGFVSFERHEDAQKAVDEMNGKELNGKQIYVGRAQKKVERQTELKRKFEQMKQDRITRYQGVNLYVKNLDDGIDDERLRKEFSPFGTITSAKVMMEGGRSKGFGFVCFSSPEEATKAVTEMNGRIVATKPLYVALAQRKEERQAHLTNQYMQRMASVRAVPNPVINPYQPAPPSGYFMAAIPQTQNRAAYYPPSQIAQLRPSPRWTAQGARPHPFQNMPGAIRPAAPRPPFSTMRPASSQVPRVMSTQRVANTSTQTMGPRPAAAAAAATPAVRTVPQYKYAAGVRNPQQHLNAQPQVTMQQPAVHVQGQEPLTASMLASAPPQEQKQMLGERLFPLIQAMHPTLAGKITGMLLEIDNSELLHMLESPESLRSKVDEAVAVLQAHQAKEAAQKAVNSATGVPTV
Rce1 inh – inhibitors of yeast Ras-converting enzyme; Q03530; yeast membranes, quenched prenylated peptide cleavage fluorescence; calls only; 0.27% of 290,000 active;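 active means fall in fluorescence gain of 50% or more versus controls, with final raw signal at or below 3038400; inconclusive means same 50% fall but final raw signal above 3038400; inactive means fall in fluorescence gain under 50%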;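 further: plate controls were neutral control wells for no effect and wells lacking membranes for full effect; tested at 10 µM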
eIF4H inh – inhibitors of RNA binding by human eIF4H. Q15056. eIF4H fluorescence polarization binding assay. inhibition, % at 35 µM. 0.94% of 290,000 active. AID 2012;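 active means 50% or more with normal probe brightness, or confirmed in later tests; inconclusive means above 50% with abnormal brightness, or retests that disagree; inactive means below 50% or failed in later tests; about a fifth of its hits are not listed in these tables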;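 further: calls also rest on retests at 20 µM and on dose response follow-up; 0% = protein and probe with vehicle and 100% = probe without protein; strong numbers were not always called active; many hits fall short of the cut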
MT1-MMP act inh – blocks activation of human MT1-MMP. P50281. HT1080 RFP-PRO-GFP cells, GFP/RFP ratio fluorescence, overnight; percent of plate control window, DMSO zero. GFP/RFP ratio change, % at 20 µM. 0.061% of 360,000 active. AID 651647;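 active means GFP/RFP ratio change of at least 30% with cell ATP level not reduced by more than half and red fluorescence within 50% of control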; further: strong numbers were not always called active
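Material – HT1080 RFP-PRO-GFP cells · Control set – DMSO wells and RFP-L50D-GFP cells · Incubation – overnight cell settling, then overnight compound exposure, 37 °C, 5% CO2 · Compound dosing – single-point 20 µM compound, 1% DMSO · Read-out – GFP/RFP fluorescence ratio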
CSC inhib – cancer stem cell inhibition. cancer stem cell-like cells viability, luminescence. inhibition, % at 7.5 µM. 1.1% of 300,000 active;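 active means mean at 75% or more and at least half the replicates too; inconclusive means mean and replicates disagree; tested in HMLE shEcad cells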;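 further: 0% = median of negative and 100% = median of positive control wells; the first replicate is given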
Yeast UUG start – modulators of start codon recognition fidelity in yeast | S. cerevisiae UUG-firefly luciferase reporter, luminescence/redox ratio | 0.13% of 350,000 active | activity score, % at 18.7 µM;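 active means replicate mean at a twofold rise or more, about +100% in these data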;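 further: firefly luciferase made from a UUG start codon reports start codon fidelity; reporter light over untreated wells divided by growth signal over untreated wells; some hits fall short of that in this replicate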
HIV Env fusion – inhibitors of HIV Env-mediated cell fusion; HeLa-JRFL Env/CEM21 cell fusion, luciferase; inhibition, % at 12.3 µM; 1.1% of 360,000 active;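 active means mean replicate inhibition score of at least 50 and every replicate individually at or above 50; inconclusive means only one of the two criteria met; inactive means mean below 50 and not all replicates reaching 50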;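 further: 0% = plate neutral controls and 100% = maraviroc near 300 nM; one replicate is shown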
MT1-MMP act inh RFP – recorded beside MT1-MMP act inh, whose call it bears; RFP signal change, %; measured here: RFP expression control read;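 0 = vehicle wells; hits needed this value within 50% of zero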
* marks the source's active call; other numbers are inactive results; i = inactive; ? = inconclusive; / = not tested or not shown; & = joins results of further samples.

Values run as follows: HIV Env fusion | Rce1 inh | Yeast UUG start | PABP polyA inh | eIF4H inh | CSC inhib | MT1-MMP act inh | MT1-MMP act inh RFP
#1 CC(C)NC(=O)c1ccc(CN2CCc3ccccc3C2)cc1
    11 | i | -9 | 0 | 0 | 2 | 1 | 4
#2 Cc1cccc(Nc2nc(CC(=O)O)cs2)c1
    11 | i | -17 | 6 | 8 | 5 | 8 | 8
#3 CC1(C)Cc2cccc(OCC(=O)Nc3ccccc3F)c2O1
    6 | i | 0 | / | / | / | 4 | -2
#4 Cc1ccc(NC(=O)c2ccc(S(=O)(=O)NCc3cccnc3)cc2)cc1C
    2 | i | -18 | -2 | -8 | / | 5 | -6
#5 COc1cc(C2c3c([nH]c(=O)[nH]c3=O)Nc3ccc4ccccc4c32)cc(OC)c1OC (stereo not given)
    5 | i | / | -5 | 0 | / | -1 | -13
#6 O=C(NC(=S)Nc1cccc(-c2ccc(CO)o2)c1)c1cccs1
    -4 | i | / | -6 | -8 | 2 | 1 | -1
#7 COC(=O)CSC1=C(C#N)C(=O)NC(c2ccccc2)S1 (stereo not given)
    -20 | i | -18 | 11 | -5 | -13 | -3 | -2
#8 O=C(CC1OC(=O)c2ccccc21)Nc1cccc(S(=O)(=O)N2CCCCCC2)c1 (stereo not given)
    27 | i | -4 | 0 | 6 | -1 | 4 | -2
#9 CCS(=O)(=O)c1ccc(O)c(N2C(=O)C3C4C=CC(C4)C3C2=O)c1 (stereo not given)
    / | i | / | -4 | -10 | 4 | 0 | 4
#10 O=C(c1c(Cl)nc2sccn12)N1CCCc2ccccc21
    11 | i | -4 | 5 | 0 | -1 | 3 | 1
#11 O=C1CCC(=O)N1c1cccc(-c2nc3ccccc3o2)c1
    28 | i | -23 | 2 | -2 | -20 | 0 | 2
#12 O=C(Nc1ccc(Cl)cc1)C1CCCN(C2=NS(=O)(=O)c3ccccc32)C1 (stereo not given)
    70* | / | 5 | / | / | 3 | -4 | 2
#13 COc1ccc(-c2noc(CCC(=O)N3CCN(c4ccccc4Br)CC3)n2)cc1
    -16 | / | -11 | / | / | / | 2 | 2
#14 OC(CN1CCOCC1)Cn1c2ccccc2c2ccccc21 (stereo not given)
    4 | i | -2 | 2 | 12 | 2 | -1 | -3
#15 O=C(Cn1cnc2c(nnn2Cc2ccc(F)cc2)c1=O)Nc1ccc2c(c1)OCCO2
    4 | i | -7 | -9 | -1 | -9 | -1 | 4
#16 CN1CCc2c(sc3c2C(=O)NC(c2cccc(OC(=O)c4cccs4)c2)N3)C1 (stereo not given)
    -47 | i | -17 | -9 | ? | 17 | -47 | 6
#17 O=C(CCNC(=O)c1ccc(Br)cc1)Nc1ccc(S(=O)(=O)Nc2ncccn2)cc1
    3 | i | / | / | / | 4 | -5 | -1
#18 CC1CCC(NS(=O)(=O)c2ccc3c(c2)n(C)c(=O)c(=O)n3C)CC1 (stereo not given)
    -23 | i | -15 | -4 | 3 | 1 | -4 | 0
#19 Cc1nc2ccccc2cc1C(=O)Nc1ccccc1Cl
    16 | i | -4 | 12 | 6 | 1 | -2 | -1
#20 Cc1cc(C)nc(N/N=C/c2ccccc2Cl)n1
    -19 | i | -29 | 27 | 28 | 2 | -3 | -5

With a hit mark in HIV Env fusion, of those listed so far:
nr	SMILES	HIV Env fusion	Rce1 inh	Yeast UUG start	MT1-MMP act inh	MT1-MMP act inh RFP
12	O=C(Nc1ccc(Cl)cc1)C1CCCN(C2=NS(=O)(=O)c3ccccc32)C1 (stereo not given)	70*	/	5	-4	2

Other results follow.
Values run as follows: HIV Env fusion | Rce1 inh | Yeast UUG start | PABP polyA inh | eIF4H inh | CSC inhib | MT1-MMP act inh | MT1-MMP act inh RFP
#21 CCN1CCN(C(=O)c2cnn3c(C(F)F)cc(-c4ccc(C)cc4)nc23)CC1
    -21 | i | -3 | -7 | -12 | -7 | 4 | -4
#22 O=C(NCC1(O)CCCCC1)C1CCC(=O)N(Cc2ccccc2F)C1 (stereo not given)
    -4 | i | -8 | 3 | -4 | -10 | -4 | 1
#23 CN(CC(=O)Nc1ccc(Cl)c(C(F)(F)F)c1)C(=O)C1CCCO1 (stereo not given)
    / | / | -10 | / | / | -15 | 3 | -2
#24 Cc1cc(C)c2[nH]c(=O)c(CN(Cc3cccnc3)C(=S)NCCCN(C)C)cc2c1
    1 | i | / | 1 | -2 | -10 | 6 | 1
#25 COc1cc2nc(CN3CCN(S(=O)(=O)c4ccc(Cl)cc4)CC3)[nH]c(=O)c2cc1OC
    18 | i | / | 0 | -2 | 19 | -2 | -11
#26 O=C(COC(=O)C(CO)NS(=O)(=O)c1ccc(Br)cc1)Nc1ccc2c(c1)OCCO2 (stereo not given)
    -4 | / | -14 | / | / | -15 | -1 | 3
#27 C[C@H](CO)N1C[C@H](C)[C@@H](CN(C)Cc2ccc(Oc3ccccc3)cc2)Oc2c(NC(=O)c3ccncc3)cccc2C1=O
    -27 | / | -1&13 | / | / | 15 | -2 | -12
#28 CN1C(=O)NC(c2ccc(O)cc2)C(C(=O)c2cccs2)C1(O)C(F)(F)F (stereo not given)
    / | i | -16 | 4 | -2 | -2 | 3 | 8
#29 CCOc1ccccc1NC(=O)c1ccc2nc[nH]c2c1
    -49 | i | -20 | -4 | 18 | -2 | -1 | -2
#30 Cc1ncc(C[n+]2csc(CCOC(=O)C34CC5CC(CC(C5)C3)C4)c2C)c(N)n1
    25 | i | -6 | 29 | 19 | 10 | -2 | 2
#31 CC(Sc1nnc(COc2ccc([N+](=O)[O-])cc2)n1C)C(=O)O (stereo not given)
    -3 | i | / | 7 | 0 | -14 | 3 | 1
#32 COc1ccc(C(C)C)cc1-c1ccc2nncn2c1
    -4 | / | -3 | / | / | / | 3 | 2
#33 N#Cc1ccc(COC(=O)CCc2c[nH]c3ccccc23)cc1
    10 | i | -1 | 3 | 3 | -5 | / | /
#34 O=C(NCCCN1CCOCC1)C1CCN(S(=O)(=O)c2c(Cl)cccc2Cl)CC1
    / | i | -8 | -1 | 1 | -16 | 0 | 2
#35 O=C(c1ccco1)[C@@H]1[C@@H]2C(=O)N(c3ccc(F)cc3)C(=O)[C@@H]2[C@H]2C=Cc3ccccc3N21
    -10 | / | / | -9 | 44 | -6 | -11 | 14
#36 COc1cccc(CN2C(=O)C3(C(C#N)=C(N)OC4=C3C(=O)CCC4)c3ccccc32)c1 (stereo not given)
    / | / | 8 | 8 | -4 | 18 | -5 | -7
#37 CCOC(=O)C1CCN(Cc2cccc(OC)c2)CC1
    / | / | -5 | 13 | 8 | 0 | -4 | -1
#38 O=C(Nc1cccc(Cl)c1N1CCOCC1)c1ccc(Br)o1
    40 | i | 11 | 18 | -7 | 30 | -3 | -6
#39 O=c1c2c([nH]n1-c1ccccc1)CCSC2
    10 | i | -18 | 4 | 0 | -28 | -2 | -1
#40 O=C1CCC([N+](=O)[O-])C(c2cc(Br)ccc2F)N1 (stereo not given)
    -8 | i | -16 | 5 | -2 | -10 | 1 | 4
#41 Cc1ccc(C(O)c2ccc(-n3ccnc3)cc2)cc1 (stereo not given)
    5 | i | / | -4 | -9 | -9 | 4 | 0
#42 CCc1ccc(/C=C2\Oc3cc(OC(=O)N4CCOCC4)ccc3C2=O)cc1
    -8 | i | 1 | -11 | -3 | 14 | 0 | -5
#43 Cc1ccc(CNCc2ccccc2Cl)cc1
    / | i | -15 | -6 | -16 | 20 | 3 | 3
#44 CCc1c(C)[nH]c2ccc(OC)cc2c1=S
    11 | / | -22 | 24 | -8 | / | 2 | -3
#45 O=C(N/N=C/CCc1ccccc1)c1ccc(CN2c3cccc4cccc(c34)S2(=O)=O)cc1
    -3 | i | -10 | -7 | -5 | 14 | 2 | 1
#46 CCOc1ccc(C2CC(c3ccc(F)cc3)Nc3nc(N)nn32)cc1 (stereo not given)
    -14 | i | -17 | -16 | -2 | -21 | 0 | 0
#47 O=C(CN1C(=O)C2CCCCC2C1=O)Nc1ccccc1N1CCCC1 (stereo not given)
    -12 | i | / | / | / | / | 1 | 3
#48 O=C1NCN(c2ccccc2)C12CCN(CCCC(c1ccc(F)cc1)c1ccc(F)cc1)CC2
    -3 | i | -6 | 27 | -6 | 78* | -6 | -16
#49 Cc1ccc2c(c1)CCCN2C(=O)C1CCCO1 (stereo not given)
    / | i | / | -7 | -12 | -11 | -3 | -3
#50 CCn1c(=O)cc(OCC(=O)Nc2cc(C)ccn2)c2ccccc21
    -26 | / | -5 | -5 | 4 | 16 | 2 | -1
#51 CC(C)CN1CCN(C(=O)CCc2nnc(Cc3c[nH]c4ccccc34)o2)[C@@H](C)C1=O
    -26 | i | -8 | -10 | 2 | -3 | -2 | 2
#52 COc1nc(C)ccc1-c1noc(-c2cccnc2)n1
    -66 | i | -19 | 8 | 14 | -1 | 4 | -1
#53 O=C(CN1C(=O)NC(Cc2ccccc2)C1=O)Nc1ccccc1F (stereo not given)
    -30 | / | -6 | / | / | / | 3 | 4
#54 CCCCCCNc1nc(-c2ccc(OC)cc2)c(CCC(=O)O)s1
    -13 | i | -19 | -7 | -2 | 17 | 2 | 1
#55 CCOC(=O)c1c(S(=O)(=O)N2CCN(Cc3ccccc3)CC2)c(C)n(C)c1C
    8 | i | -12 | 0 | -6 | -7 | -3 | 1
#56 COc1ccc(S(=O)(=O)N2CCOCC2)cc1NC(=O)CC(C)c1ccccc1 (stereo not given)
    / | / | -20 | / | / | -4 | -3 | -6
#57 CCOC(=O)C1=NOC(CN(c2ccccc2)S(=O)(=O)c2ccc(Cl)cc2)C1 (stereo not given)
    15 | i | -1 | 3 | 4 | 0 | 1 | 2
#58 CC(C)(C)n1cnc2cc(NS(=O)(=O)c3ccc(Br)cc3)ccc21
    / | i | -22 | 8 | -4 | -1 | 0 | -16
#59 O=S1(=O)CCC(S(=O)(=O)N2CCCCCC2)C1 (stereo not given)
    18 | i | 1 | 10 | -4 | 0 | 0 | 0
#60 Cc1ccc(-c2csc(N3N=C(c4ccccc4)/C(=C\c4ccc(N(C)C)cc4)C3=O)n2)cc1
    / | i | / | -7 | 5 | 7 | / | /
#61 CCn1cc([N+](=O)[O-])c(C(=O)Nc2nc3ccc(OC)cc3s2)n1
    -7 | i | / | 20 | 10 | 1 | 0 | 5
#62 CCCC(c1nnnn1CCc1ccccc1)N1CCN(C2CCCC2)CC1 (stereo not given)
    -47 | / | -6 | -9 | -7 | -8 | -3 | -2
#63 COc1cc(C(O)c2nc(-c3ccc(C)c(C)c3)cs2)ccc1F (stereo not given)
    7 | / | -9 | / | / | / | -3 | -12
#64 COc1ccccc1NS(=O)(=O)c1cccc(NS(=O)(=O)c2cc(C(=O)O)ccc2OC)c1
    1 | / | -10 | / | / | -4 | -2 | 2
#65 CC(=O)N1CCN(C(=S)NC(=O)c2ccc(S(=O)(=O)N3CCOCC3)cc2)CC1
    -5 | i | / | -4 | -1 | -15 | -1 | 6
#66 N#Cc1cccc(CN2CCCN(Cc3ccc(F)cc3)S2(=O)=O)c1
    -2 | i | 11 | 10 | -6 | 2 | 0 | -1
#67 Nc1ccccc1-c1ccc([N+](=O)[O-])cc1
    14 | / | -7 | / | / | / | 0 | -10
#68 COC(=O)[C@H]1C[C@H](C(=O)O)[C@@H](C)C1(C)C
    -9 | / | -31 | / | / | 27 | 0 | -1
#69 O=C(Nc1cccc(C(=O)N2CCOCC2)c1)c1cccnc1
    / | i | 7 | 6 | -5 | -16 | 0 | 1
#70 Clc1ccc(OCc2cn3cccnc3n2)c2ncccc12
    / | i | -22 | -16 | -3 | / | 7 | 3
#71 COc1cc2c(cc1OC)CN(C(=O)CN1C(=O)NC3(CCCCC3C)C1=O)CC2 (stereo not given)
    6 | / | 4 | / | / | / | 1 | -8

Compounds as they come. Share with any hit: about 2.9%.
